Compound activity from PubChem.
Beta apoptosis = inhibitors of cytokine-induced beta cell apoptosis, primary screen, luminescence; INS-1E cytokine-induced death, ATP luminescence, 48 h; percent of positive-control rescue, neutral wells zero; protection from apoptosis, % (test concentration not listed); hit rate 0.8% among 300,000; AID 435005, 2010;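 active = all replicates at 75% or more, or half of them and the mean; inconclusive = half reach 75% but not the mean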;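 also: 0% = cytokine-treated negative control wells and 100% = positive control rescue; higher means more ATP so stronger rescue from cytokine killing; wells of about 40 µL received 100 nL stock; the first replicate is given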
rRNA inh HTS = reduced GFP signal of wild-type E. coli, primary screen, bacterial rRNA inhibitor project, GFP/RFP fluorescence, OD600, single point; AID 720706, 2013; GFP signal change (wild-type ribosome), % (test concentration not listed); hit rate 1.6% among 350,000; E. coli WT GFP vs humanized-ribosome RFP mutants, 24 h; active compounds read low; DMSO median 0, no signal -100;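 active = significant combined selectivity score with lowered wild-type GFP, culture density cut under 30%, mutant RFP and density less affected; inactive = any of these conditions unmet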; also: one replicate is shown; some compounds called inactive have numbers as strong as hits
T cruzi inh = inhibitors of intracellular T. cruzi growth, primary screen, luminescence, NIH3T3 host cells | AID 1885, 2009 | T. cruzi beta-gal in NIH3T3, 90 h | inhibition, % (concentration not given with the values) | hit rate 1.4% among 300,000;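 active = mean inhibition across valid replicates above about 55%, limit read from the data; inconclusive = mean below that limit but half or more replicates reach it; inactive = mean below it, under half of replicates reach it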;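 also: signal also drops with host cell toxicity which is not excluded here; 0% = plate median of DMSO wells and 100% = zero luminescence signal; higher percent means less beta-gal luminescence so fewer parasites; stock transfer was 50 nL into about 50 µL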
RanGTP-Impb inh = inhibitors of RanGTP-importin-beta interaction, primary screen, biochemical, FRET, CFP-Ran, YFP-importin-beta, homogeneous | cell-free CFP-Ran/YFP-importin-beta FRET ratio | Ran GTPase (GTP-bound) - importin-beta complex | hit rate 1.1% among 300,000 | inhibition, % (concentration not given with the values);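 active = most replicates above 15%; inconclusive = exactly half above 15%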;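 also: 0% = DMSO wells and 100% = Ran loaded with GDP instead of GTP; wells of about 40 µL received 100 nL stock; the first replicate is given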
AF4-AF9 inh = inhibitors of AF4 peptide binding to AF9, primary screen, biochemical, AlphaScreen, biotin-AF4 peptide, FLAG-AF9, single point; Protein AF-9 (Homo sapiens), P42568; inhibition, % at 10 µM; hit rate 0.47% among 350,000; AID 651704, 2012;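 active = every replicate reaching a set inhibition limit, whatever the replicate mean, cut at about 25% in these data; inconclusive = mean inhibition reaches that limit but some replicates miss it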;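 also: 0% = plate neutral control median and 100% = total signal loss; the record names both 10 and 1 µM as test concentration; the first replicate is given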
Target sequence (P42568 whole entry, looked up): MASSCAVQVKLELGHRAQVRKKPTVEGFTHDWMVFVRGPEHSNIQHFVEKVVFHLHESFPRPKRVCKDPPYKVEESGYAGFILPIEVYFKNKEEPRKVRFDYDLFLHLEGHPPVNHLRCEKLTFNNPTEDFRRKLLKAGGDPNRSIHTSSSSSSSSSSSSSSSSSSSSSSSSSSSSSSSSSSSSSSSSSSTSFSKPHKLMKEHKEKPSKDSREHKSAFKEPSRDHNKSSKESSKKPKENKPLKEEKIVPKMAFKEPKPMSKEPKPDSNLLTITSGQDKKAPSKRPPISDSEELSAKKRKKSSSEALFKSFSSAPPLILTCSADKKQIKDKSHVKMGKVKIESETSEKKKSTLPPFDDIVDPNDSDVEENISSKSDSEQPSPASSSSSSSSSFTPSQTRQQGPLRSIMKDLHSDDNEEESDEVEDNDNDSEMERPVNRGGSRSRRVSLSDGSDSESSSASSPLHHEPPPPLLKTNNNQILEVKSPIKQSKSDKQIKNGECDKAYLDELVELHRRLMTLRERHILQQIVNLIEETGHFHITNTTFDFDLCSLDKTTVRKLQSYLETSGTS
FGF22 binding = binders of human FGF22 protein, primary screen, FGF22 synaptogenesis inhibitor project, biophysical, thermal shift, single point; Fibroblast growth factor 22 (Homo sapiens), Q9HCT0; recombinant FGF22 thermal shift, SYPRO orange fluorescence; percent of sucrose octasulfate shift, DMSO zero; calls only at 9.99 µM; hit rate 1.5% among 340,000; AID 651658, 2012;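 active = melting point raised past a set limit in the mean and every replicate; inconclusive = no clear call; three in four hits are not shown here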
Target sequence (Q9HCT0 whole entry, looked up): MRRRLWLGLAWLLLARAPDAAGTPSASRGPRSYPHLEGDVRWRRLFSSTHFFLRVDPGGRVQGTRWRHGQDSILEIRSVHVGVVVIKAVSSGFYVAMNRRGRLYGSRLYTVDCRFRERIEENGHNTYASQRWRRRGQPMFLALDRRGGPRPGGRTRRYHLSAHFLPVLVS
ALR inh = inhibitors of human ALR sulfhydryl oxidase, primary screen, biochemical, H2O2 detection, HRP-luminol luminescence, single point | purified ALR, DTT oxidation | FAD-linked sulfhydryl oxidase ALR (Homo sapiens), P55789 | hit rate 3.8% among 290,000 | inhibition, % (test concentration not listed) | AID 485317, 2010;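 active = mean and each replicate at 75% or more; inconclusive = only one of the two met; inactive = neither met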;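 also: stock transfer was 7.5 nL into about 7.5 µL; 0% = neutral wells and 100% = wells with inactivated enzyme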
Target sequence (P55789 whole entry, looked up): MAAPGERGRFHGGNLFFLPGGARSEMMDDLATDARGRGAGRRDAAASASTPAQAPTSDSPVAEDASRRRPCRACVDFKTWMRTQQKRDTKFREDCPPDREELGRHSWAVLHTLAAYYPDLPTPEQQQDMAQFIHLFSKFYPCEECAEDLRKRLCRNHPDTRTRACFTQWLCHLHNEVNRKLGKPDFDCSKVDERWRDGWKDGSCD
Calb FLC = C. albicans growth inhibition with fluconazole, primary screen, CaCi-2 strain, Alamar Blue fluorescence | growth inhibition, % (concentration not given with the values) | hit rate 0.57% among 300,000 | C. albicans CaCi-2 (fluconazole-resistant clinical isolate) + fluconazole, 48 h;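 active = most replicates above 75%; inconclusive = exactly half above 75%; inactive = most below 75%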;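 also: all wells also contain fluconazole at 8 µg/ml as a sub-toxic cotreatment; 0% = median of DMSO wells and 100% = median of geldanamycin control wells; wells of about 8 µL received 7.5 nL stock; the first replicate is given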
rRNA inh HTS OD600 = further read-out of rRNA inh HTS, marked with its call; OD600 change, %; measured here: OD600 growth;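 optical density of the mix in the first replicate; 0 = DMSO median and -100 = no signal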
rRNA inh HTS RFP = second read-out of rRNA inh HTS, no call of its own (marks repeat the call); RFP signal change, %; measured here: RFP humanized mutant strains;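 first replicate; 0 = DMSO median and -100 = no signal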
The depositor's hits bear a star; i = inactive; ? = inconclusive; . = not tested or not shown. An excerpt; rates above refer to the full screens.

1: COc1cccc(C2c3[nH]c4ccccc4c3C[C@H]3C(=O)N(c4ccccc4C(=O)N4CCC(C(=O)O)CC4)C(=O)N23)c1 (stereo not given in full)
2: CC1Oc2ccccc2N(CC(=O)NC2CC2)C1=O (stereo not given)
3: O=C(Oc1cc2oc(=O)cc(-c3ccccc3)c2cc1Cl)C1CCCCC1
4: O=C(O)c1cccc(N/N=C/c2cccc3ccccc23)c1
5: Cc1ccc(NC(=O)CSc2nnc(C)c(=O)n2N)cc1Cl

assay / compound,1,2,3,4,5
Beta apoptosis,-4,-7,1,2,-8
rRNA inh HTS,-5,11,.,1,-10
rRNA inh HTS OD600,6,10,.,2,-10
rRNA inh HTS RFP,8.7,0.0,.,-1.0,-5.4
T cruzi inh,6,7,-8,1,3
RanGTP-Impb inh,2.1,1.4,-3.7,0.4,-3.2
AF4-AF9 inh,1.5,-0.4,.,4.1,0.4
FGF22 binding,i,i,.,i,i
ALR inh,98*,2,98*,99*,48
Calb FLC,-2,-9,77*,1,2

6: O=C(O)Cc1ccc(C(=O)c2cccs2)s1
7: Cc1cc(Cl)ccc1OCCCC(=O)Nc1ccc(S(=O)(=O)Nc2ncccn2)cc1
8: O=C(OCC(=O)C12CC3CC(CC(C3)C1)C2)c1cccnc1Cl
9: CSc1ccc(CN(C)C(=O)C(c2ccccc2)c2ccccc2)cc1
10: CCOc1c2ccc(C(=O)NCCc3cccs3)cc2nn1CC

assay / compound,6,7,8,9,10
Beta apoptosis,7,-1,1,4,-2
rRNA inh HTS,.,-2,-29,-21*,-8
rRNA inh HTS OD600,.,0,-65,-11*,-7
rRNA inh HTS RFP,.,-0.5,-4.8,-2.4*,-1.1
T cruzi inh,-15,3,4,11,-4
RanGTP-Impb inh,-5.0,0.7,-4.1,0.9,-0.9
AF4-AF9 inh,.,1.4,-1.4,-1.0,0.9
FGF22 binding,.,i,i,i,i
ALR inh,8,.,-4,-20,0
Calb FLC,1,4,?,-7,-13

11: CN(Cc1cccc(Cl)c1Cl)c1ccc(S(=O)(=O)N2CCCCC2)cc1[N+](=O)[O-]
12: COc1cc2[nH]c(=O)n3nc(-c4ccccc4)nc3c2cc1OC
13: CCOC(=O)Cn1c(CN2CCN(c3cccc(Cl)c3)CC2)nc2c1c(=O)[nH]c(=O)n2C
14: CSc1cc(-c2ccccc2)[nH]c(=O)c1C#N
15: CCOc1ccccc1C(=O)Nc1c[nH]c(=O)[nH]c1=O

assay / compound,11,12,13,14,15
Beta apoptosis,-15,0,.,1,.
rRNA inh HTS,.,.,7,8,21
rRNA inh HTS OD600,.,.,11,11,19
rRNA inh HTS RFP,.,.,1.1,-0.9,3.1
T cruzi inh,38,21,11,2,-1
RanGTP-Impb inh,-0.9,0.2,?,0.8,2.2
AF4-AF9 inh,.,.,?,-3.1,-6.0
FGF22 binding,.,.,i,i,i
ALR inh,.,20,19,-2,-2
Calb FLC,-23,0,-7,7,-3

16: COc1ccc(NC(=S)Nc2ccc3snnc3c2)cc1
17: O=C(COc1ncnc2ccccc12)NCCCN1CCCC1=O
18: O=C(CCCc1c[nH]c2ccccc12)NCCc1c[nH]c2ccccc12
19: COc1ccc(N2C(=O)CC(N(CCc3ccc(S(N)(=O)=O)cc3)C(=S)Nc3ccccc3)C2=O)cc1 (stereo not given)
20: CCOC(=O)c1c(C)oc2ccc(O)c(CN3CCCCC3)c12

assay / compound,16,17,18,19,20
Beta apoptosis,-10,7,5,3,3
rRNA inh HTS,3,.,-3,-10,2
rRNA inh HTS OD600,-10,.,-13,-9,3
rRNA inh HTS RFP,-3.6,.,5.4,6.4,1.0
T cruzi inh,-2,-2,11,-6,-16
RanGTP-Impb inh,0.1,-0.6,5.8,0.4,-3.0
AF4-AF9 inh,-1.2,.,5.6,-25,-2.0
FGF22 binding,.,.,i,i,i
ALR inh,97*,-1,11,.,23
Calb FLC,4,-9,7,9,-5

21: CC(C)(C)NC(=S)NNC(=O)[C@H]1C[C@@H]1c1ccccc1
22: CCc1noc(C)c1C(=O)Nc1nc(-c2ccc(OC)cc2)cs1
23: CC1(C)CC2(CCO1)N1CC3(C)CN2CC(C)(C1)C3=O (stereo not given)
24: O=C(Nc1ccc2c(c1)OCCO2)c1ccc(CN2CCOCC2)cc1
25: COc1ccccc1C(=O)N/N=C/c1cnc2ccccc2n1

assay / compound,21,22,23,24,25
Beta apoptosis,-2,2,-10,-4,-3
rRNA inh HTS,.,1,.,.,8
rRNA inh HTS OD600,.,-9,.,.,9
rRNA inh HTS RFP,.,-1.3,.,.,0.2
T cruzi inh,-23,0,-21,10,3
RanGTP-Impb inh,-3.2,0.6,-1.1,5.5,-3.4
AF4-AF9 inh,-0.8,-0.8,.,.,-2.4
FGF22 binding,i,.,.,.,i
ALR inh,25,7,2,-8,-8
Calb FLC,-27,4,-7,-7,24

26: C/C(=N\Nc1cccc([N+](=O)[O-])c1)c1ccccc1O
27: CCc1ccc(/C=C(\C#N)C(=O)NC2CCS(=O)(=O)C2)cc1 (stereo not given)
28: O=C1CCC/C1=C\c1ccccc1
29: Cc1c(Br)cc(-c2nnco2)cc1Br
30: COc1ccc(S(=O)(=O)N2CCC(C(=O)N3CCOCC3)CC2)cc1OC

assay / compound,26,27,28,29,30
Beta apoptosis,14,-3,-5,-12,-1
rRNA inh HTS,3,15,5,.,6
rRNA inh HTS OD600,6,8,8,.,6
rRNA inh HTS RFP,-2.8,4.1,-7.9,.,-2.9
T cruzi inh,16,.,-22,6,-3
RanGTP-Impb inh,-1.4,.,149*,-0.8,0.6
AF4-AF9 inh,0.1,-1.7,-0.2,.,-7.4
FGF22 binding,i,i,i,.,i
ALR inh,-7,4,-1,-5,-6
Calb FLC,-6,.,-12,-23,-1

8 compounds already listed, ordered by number of heavy atoms, low to high.
28: O=C1CCC/C1=C\c1ccccc1
29: Cc1c(Br)cc(-c2nnco2)cc1Br
26: C/C(=N\Nc1cccc([N+](=O)[O-])c1)c1ccccc1O
27: CCc1ccc(/C=C(\C#N)C(=O)NC2CCS(=O)(=O)C2)cc1 (stereo not given)
20: CCOC(=O)c1c(C)oc2ccc(O)c(CN3CCCCC3)c12
22: CCc1noc(C)c1C(=O)Nc1nc(-c2ccc(OC)cc2)cs1
24: O=C(Nc1ccc2c(c1)OCCO2)c1ccc(CN2CCOCC2)cc1

assay / compound,28,29,26,27,20,22,24
Beta apoptosis,-5,-12,14,-3,3,2,-4
rRNA inh HTS,5,.,3,15,2,1,.
rRNA inh HTS OD600,8,.,6,8,3,-9,.
rRNA inh HTS RFP,-7.9,.,-2.8,4.1,1.0,-1.3,.
T cruzi inh,-22,6,16,.,-16,0,10
RanGTP-Impb inh,149*,-0.8,-1.4,.,-3.0,0.6,5.5
AF4-AF9 inh,-0.2,.,0.1,-1.7,-2.0,-0.8,.
FGF22 binding,i,.,i,i,i,.,.
ALR inh,-1,-5,-7,4,23,7,-8
Calb FLC,-12,-23,-6,.,-5,4,-7

30: COc1ccc(S(=O)(=O)N2CCC(C(=O)N3CCOCC3)CC2)cc1OC

assay / compound,30
Beta apoptosis,-1
rRNA inh HTS,6
rRNA inh HTS OD600,6
rRNA inh HTS RFP,-2.9
T cruzi inh,-3
RanGTP-Impb inh,0.6
AF4-AF9 inh,-7.4
FGF22 binding,i
ALR inh,-6
Calb FLC,-1

Next part:
31: CCCC(=O)OCC(=O)Nc1ccccc1Sc1ccccc1
32: CC(=O)OC(COc1cccc(C)c1)Cn1cnc2ccccc21 (stereo not given)
33: Cc1cccc(C)c1N1C(=O)C2ON(c3ccccc3)C(c3ccncc3)C2C1=O (stereo not given)
34: O=C(Cn1ncc2c([nH]c3ccccc32)c1=O)N1CCc2ccccc2C1
35: O=C(Cc1ccc(Br)cc1)NCCCn1ccnc1

assay / compound,31,32,33,34,35
Beta apoptosis,-7,7,-1,-9,-10
rRNA inh HTS,.,-37*,-1,11,9
rRNA inh HTS OD600,.,-12*,5,5,11
rRNA inh HTS RFP,.,-4.4*,-0.3,0.3,0.9
T cruzi inh,-6,-4,-12,-11,8
RanGTP-Impb inh,-4.2,-1.5,-4.0,-0.9,-4.2
AF4-AF9 inh,.,0.5,.,-1.0,0.6
FGF22 binding,.,i,.,i,i
ALR inh,0,-18,-6,-4,-6
Calb FLC,34,-1,35,-5,-14

36: Cc1c(O)nc(SCC(=O)Nc2nccs2)n(-c2ccccc2F)c1=O
37: Cc1ccc(CNC(=O)C2CCCN(c3ncnc4c3nc3n4CCCCC3)C2)cc1 (stereo not given)
38: CC1CC(C)(C)CC2(C1)NC(=O)N(CC(=O)N1CCN(S(=O)(=O)c3cccc(F)c3)CC1)C2=O (stereo not given)
39: Cc1ccc(C2C(C#N)=C(N)Oc3cc4c(cc32)OCO4)cc1 (stereo not given)
40: COc1ccc(-c2nc3ccccc3c(=O)n2CCCn2ccnc2)cc1

assay / compound,36,37,38,39,40
Beta apoptosis,-4,5,-1,7,3
rRNA inh HTS,7,0,.,.,.
rRNA inh HTS OD600,8,2,.,.,.
rRNA inh HTS RFP,-2.9,-4.0,.,.,.
T cruzi inh,6,0,.,-2,14
RanGTP-Impb inh,-0.2,2.5,.,12,.
AF4-AF9 inh,-0.7,-4.4,-4.1,.,.
FGF22 binding,i,i,i,.,.
ALR inh,99*,-5,0,-6,-15
Calb FLC,-16,1,.,7,21

41: Cc1ccc(CNC(=O)CSc2nc3ccccc3[nH]2)cc1
42: COc1cc(NC2=CC(=O)CC(C)(C)C2)cc(OC)c1OC
43: CC(=O)NC1C(=O)N=C(SCC(=O)NCc2ccccc2)NC1=O (stereo not given)
44: CCCN1CCC(=O)N([C@H](CSc2ccc(OC)cc2)CC(C)C)CC1
45: Cc1onc(-c2ccccc2Cl)c1C(=O)Nc1ccc(CN2CCCC2)cc1

assay / compound,41,42,43,44,45
Beta apoptosis,5,-1,-3,-4,4
rRNA inh HTS,-13,.,12,4,.
rRNA inh HTS OD600,-7,.,-1,4,.
rRNA inh HTS RFP,-0.6,.,1.7,1.7,.
T cruzi inh,10,-5,-7,-6,29
RanGTP-Impb inh,2.8,.,3.1,1.0,1.3
AF4-AF9 inh,-2.8,.,-22,.,.
FGF22 binding,i,.,i,i,.
ALR inh,26,-9,45,99*,-12
Calb FLC,8,-12,11,-28,-7
